Rce1 inhib: blocks yeast Ras-converting enzyme; Q03530; yeast membranes, quenched prenylated peptide cleavage fluorescence; calls only; 290,000 tested, 0.27% active;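 active means fall in fluorescence gain of 50% or more versus controls, with final raw signal at or below 3038400; inconclusive means same 50% fall but final raw signal above 3038400; inactive means fall in fluorescence gain under 50%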;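 further: plate controls were neutral control wells for no effect and wells lacking membranes for full effect; tested at 10 µM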
Target sequence (Q03530 whole entry, looked up): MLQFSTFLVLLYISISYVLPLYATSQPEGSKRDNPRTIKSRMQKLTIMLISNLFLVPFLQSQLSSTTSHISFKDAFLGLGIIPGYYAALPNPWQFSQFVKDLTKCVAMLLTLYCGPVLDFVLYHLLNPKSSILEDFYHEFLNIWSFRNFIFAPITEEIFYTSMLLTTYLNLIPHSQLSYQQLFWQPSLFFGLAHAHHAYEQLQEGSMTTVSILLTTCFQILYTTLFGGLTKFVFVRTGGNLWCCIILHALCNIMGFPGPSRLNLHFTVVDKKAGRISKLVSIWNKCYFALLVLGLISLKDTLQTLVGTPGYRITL
Env fusion inh: blocks HIV Env-driven cell-cell fusion; HeLa-JRFL Env/CEM21 cell fusion, luciferase; 360,000 tested, 1.1% active; inhibition, % at 12.3 µM;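 active means mean replicate inhibition score of at least 50 and every replicate individually at or above 50; inconclusive means only one of the two criteria met; inactive means mean below 50 and not all replicates reaching 50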;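 further: 0% = plate neutral controls and 100% = maraviroc near 300 nM; one replicate is shown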
CSC inhib: cancer stem cell inhibition | cancer stem cell-like cells viability, luminescence | inhibition, % at 7.5 µM | 300,000 tested, 1.1% active | AID 2717;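 active means mean at 75% or more and at least half the replicates too; inconclusive means mean and replicates disagree; tested in HMLE shEcad cells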;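 further: 0% = median of negative and 100% = median of positive control wells; the first replicate is given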
MT1-MMP act inh: inhibitors of human MT1-MMP activation | HT1080 RFP-PRO-GFP cells, GFP/RFP ratio fluorescence, overnight; percent of plate control window, DMSO zero | P50281 | AID 651647 | GFP/RFP ratio change, % at 20 µM | 360,000 tested, 0.061% active;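 active means GFP/RFP ratio change of at least 30% with cell ATP level not reduced by more than half and red fluorescence within 50% of control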; further: strong numbers were not always called active
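Assay system: RFP-PRO-GFP reporter HT1080 cells; read-out basis: GFP/RFP fluorescence ratio; benchmarks: DMSO wells and RFP-L50D-GFP cells; doses: 20 µM single dose, 1% DMSO; schedule: overnight cell settling, then overnight compound exposure, 37 °C, 5% CO2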
Yeast UUG start: modulators of start codon recognition fidelity in yeast; S. cerevisiae UUG-firefly luciferase reporter, luminescence/redox ratio; activity score, % at 18.7 µM; 350,000 tested, 0.13% active; AID 602363;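 active means replicate mean at a twofold rise or more, about +100% in these data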;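 further: firefly luciferase made from a UUG start codon reports start codon fidelity; reporter light over untreated wells divided by growth signal over untreated wells; some hits fall short of that in this replicate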
PABP polyA inh: blocks human PABP binding to poly(A) RNA. P11940. fluorescence polarization. inhibition, % at 35 µM. 290,000 tested, 1% active;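 active means 50% or more with normal probe brightness, or confirmed in later tests; inconclusive means above 50% with abnormal brightness, or retests that disagree; inactive means below 50% or failed in later tests; about a fifth of its hits are not listed in these tables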;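 further: calls also rest on retests at 20 µM and on dose response follow-up; controls were probe without protein and protein plus probe with vehicle; some compounds called inactive have numbers as strong as hits; many hits fall short of the cut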
Target sequence (P11940 whole entry, looked up): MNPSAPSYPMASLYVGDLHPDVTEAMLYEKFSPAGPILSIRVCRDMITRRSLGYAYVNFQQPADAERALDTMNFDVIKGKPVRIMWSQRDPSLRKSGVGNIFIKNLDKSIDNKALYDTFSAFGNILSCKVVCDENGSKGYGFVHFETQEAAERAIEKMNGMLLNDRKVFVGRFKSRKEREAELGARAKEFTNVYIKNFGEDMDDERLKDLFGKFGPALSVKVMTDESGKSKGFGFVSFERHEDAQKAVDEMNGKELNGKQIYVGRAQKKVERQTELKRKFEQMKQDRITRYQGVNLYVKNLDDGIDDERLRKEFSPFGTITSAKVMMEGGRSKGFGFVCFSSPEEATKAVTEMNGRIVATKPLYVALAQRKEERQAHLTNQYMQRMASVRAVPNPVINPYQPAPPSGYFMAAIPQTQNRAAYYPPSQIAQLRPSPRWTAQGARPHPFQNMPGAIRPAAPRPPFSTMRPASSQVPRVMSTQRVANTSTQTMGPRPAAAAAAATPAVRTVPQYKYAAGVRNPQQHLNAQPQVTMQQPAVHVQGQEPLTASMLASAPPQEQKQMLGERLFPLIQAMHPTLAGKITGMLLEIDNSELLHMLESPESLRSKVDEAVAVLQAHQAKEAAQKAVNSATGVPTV
eIF4H FP inh: inhibitors of RNA binding by human eIF4H; inhibition, % at 35 µM; Q15056; eIF4H fluorescence polarization binding assay; 290,000 tested, 0.94% active;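 active means 50% or more with normal probe brightness, or confirmed in later tests; inconclusive means above 50% with abnormal brightness, or retests that disagree; inactive means below 50% or failed in later tests; about a fifth of its hits are not listed in these tables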;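 further: calls also rest on retests at 20 µM and on dose response follow-up; 0% = protein and probe with vehicle and 100% = probe without protein; strong numbers were not always called active; many hits fall short of the cut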
MT1-MMP act inh RFP: second read-out of MT1-MMP act inh, no call of its own (marks repeat the call); RFP signal change, %; measured here: RFP expression control read;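 0 = vehicle wells; hits needed this value within 50% of zero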
An asterisk follows results filed as active; i = inactive; ? = inconclusive; nt = no result given; + = active, no number. Random draw from the library; overall some 3% were active at least once.

canonical_smiles | Rce1 inhib | Env fusion inh | CSC inhib | MT1-MMP act inh | MT1-MMP act inh RFP | Yeast UUG start | PABP polyA inh | eIF4H FP inh
COc1ccc(/C=C2\CCC(C3CCCC3)C2=O)cc1OC (centres undefined) | i | 19.8 | -7.0 | -1.2 | -5.5 | -17.6 | 0.8 | -1.3
O=C(Nc1ccc(S(=O)(=O)NCC2CCCO2)cc1)c1ccc(Cl)cc1[N+](=O)[O-] (centres undefined) | i | 12.2 | 4.8 | 1.6 | -3.7 | nt | 11.8 | -1.9
Cc1ccc2c(CC(=O)NCc3ccc4c(c3)OCO4)coc2c1 | i | nt | 8.7 | 5.3 | -11.4 | -7.5 | 13.1 | 0.1
COc1ccc(-c2cc(C(F)(F)F)nc(S(=O)(=O)CCCC(=O)Nc3cc(C)on3)n2)cc1OC | i | 8.8 | nt | -6.5 | -8.1 | nt | -8.4 | -10.4
Nc1ncc(CCN2CCOCC2)c(-c2ccc(F)cc2)n1 | i | 5.7 | 3.0 | 0.4 | -0.4 | nt | -2.0 | 0.3
CC1CCCCN1c1ccc(N)cc1C(N)=O (centres undefined) | nt | 8.3 | -2.9 | -2.6 | 1.6 | nt | 6.2 | 0.2
Cc1ccsc1C(=O)NCc1ccc(Cl)cc1 | i | 6.6 | -4.0 | 1.4 | 3.3 | -23.3 | nt | nt
CCN1CCN(C(=O)/C(=C/c2ccco2)NC(=O)c2ccccc2)CC1 | i | 5.5 | -8.9 | 0.7 | 7.6 | -10.4 | 28.4 | 46.4
O=[N+]([O-])c1cc(S(=O)(=O)O)cc([N+](=O)[O-])c1NN(c1ccccc1)c1ccccc1 | i | -9.6 | 5.7 | 0.7 | 4.5 | -10.7 | 17.7 | -3.3
O=[N+]([O-])c1ccccc1S(=O)(=O)N1CCCc2ccccc21 | i | 10.7 | -10.4 | -3.1 | -2.1 | -13.5 | -1.2 | -9.5
CCOc1ccc2oc(C(=O)NCc3nc4ccccc4[nH]3)c(C)c2c1 | i | nt | 6.4 | 3.3 | -1.1 | -13.4 | -3.1 | -11.0
COc1cc(OC)c(N2CC34C=CC(O3)C(C(=O)O)C4C2=O)cc1Cl (centres undefined) | i | nt | nt | 17.1 | 11.8 | -9.2 | -5.7 | -3.1
COc1ccc(CCNC(=O)C2COc3ccccc3O2)cc1OC (centres undefined) | nt | -8.6 | nt | -2.1 | 1.3 | -13.4 | nt | nt
C=C1C(=O)C=C2CN(C(=O)c3ccccc3)[C@@](Cc3ccc(F)cc3)(C(=O)OC)[C@@H]12 | i | nt | -1.9 | -16.6 | -30.8 | -8.3 | 4.9 | -5.9
COc1ccccc1CC(=O)Nc1cccc(S(=O)(=O)N2CCOCC2)c1 | i | nt | -11.9 | 2.7 | 0.8 | 1.8 | -6.9 | -7.4
OC(c1cc(F)cc(Cl)c1)c1ncc(-c2cccc(C(F)(F)F)c2)[nH]1 (centres undefined) | nt | 28.7 | nt | 7.0 | -10.1 | -16.3 | nt | nt
O=C(NC1CCCCC1)N1CCN(c2ccc([N+](=O)[O-])cc2)CC1 | i | -76.1 | -8.2 | 3.5 | -11.2 | 0.5 | 8.7 | -1.9
COc1ccc(CC2S/C(=N/N=C/c3ccccc3O)NC2=O)cc1 (centres undefined) | i | -3.0 | ? | 6.9 | 2.6 | -16.7 | -1.7 | -12.6
CC1CCN(CCCNC(=O)C2CC(=O)N(C3CCCCCC3)C2)CC1 (centres undefined) | i | nt | 13.2 | -7.6 | 0.1 | 8.1 | -1.6 | -8.9
COc1ccccc1/C=C/C=N/NC(=O)CN1CCN(S(=O)(=O)c2ccc(C)cc2)CC1 | + | 6.5 | 2.6 | 2.2 | -2.6 | nt | -19.8 | -9.1
CCCCc1c(C)c(C#N)c2nc3ccccc3n2c1Nc1c(C)n(C)n(-c2ccccc2)c1=O | i | -66.1 | 6.4 | -3.0 | -13.6 | -20.5 | -11.1 | -5.1
Cc1ccn2c(NC3CCCC3)c(-c3ccccn3)nc2c1 | i | 30.2 | 62.0 | 0.4 | -11.6 | -45.5 | -7.8 | 14.2
Cc1ccc(-c2nn3c(C)nnc3c3ccccc23)cc1S(=O)(=O)NCc1ccccc1 | i | -107.4 | 12.2 | 7.9 | 2.1 | -20.5 | -1.6 | 0.3
CC(C)Nc1c(N)c(=O)oc2ccccc12 | i | nt | -11.0 | 0.7 | 4.6 | 1.3 | 0.9 | -9.9
CS(=O)(=O)N1CCC(C(=O)NCc2ccncc2)CC1 | i | nt | 4.0 | -0.7 | -5.4 | 3.0 | 2.5 | -1.8
Cc1nn(-c2ccc(NC(=O)c3ccncc3)cc2)c(C)c1Cl | i | 19.0 | nt | 4.5 | -28.2 | -5.5 | -10.4 | -10.3
CC(C)c1ccc(NC(=O)CNC(=O)Cn2ccc3ccccc3c2=O)cc1 | i | 3.6 | -8.8 | 2.7 | 3.7 | -14.7 | -3.4 | -0.6
CC(=O)C1=C(O)C(=O)N(Cc2cccnc2)C1c1ccc(Cl)cc1Cl (centres undefined) | nt | nt | -1.4 | -0.3 | 3.6 | -9.9 | -1.9 | 5.8
COCCC(=O)N1CCC(Oc2ccc(C(=O)NCc3cc(C)n(C)n3)cc2)CC1 | i | 4.6 | 12.1 | 2.0 | 3.3 | -4.0 | 4.2 | -0.5
COc1ccc(-c2noc(CCC(=O)N3CCN(c4ccc(Cl)cc4)CC3)n2)cc1 | nt | 7.8 | nt | 1.0 | -2.9 | -13.9 | nt | nt
CSC1=NCCN1C(=O)c1cccs1 | i | -214.7 | 4.9 | 1.6 | 6.6 | -12.6 | 5.7 | 7.9
Cc1ccc(Nc2nc(N3CCOCC3)c3ccccc3n2)cc1 | i | nt | -9.1 | -0.3 | -11.0 | nt | 28.2 | -13.3
O=C(NCc1cccc2ccccc12)Nc1ccccc1 | i | -9.1 | 12.2 | 1.2 | 0.0 | nt | -1.2 | -6.2
CC(Oc1ccc2c(-c3ccccc3)cc(=O)oc2c1)C(=O)NCCCn1ccnc1 (centres undefined) | nt | nt | 60.1 | -4.3 | -15.0 | -16.5 | -8.7 | 2.6
Cc1ccc(NS(=O)(=O)c2ccc(NC(=O)N3CCCCC3)cc2)cc1 | + | 32.8 | 10.6 | -7.0 | -5.2 | -11.2 | 16.0 | 2.0
Cc1ccc(C(=O)NC2CCCc3ccccc32)o1 (centres undefined) | i | -21.6 | -5.5 | 0.5 | 2.5 | -1.8 | 7.4 | 5.4
CCc1cc(CNC(=O)CC2C(=O)NCCN2Cc2ccc(-c3ccccc3)cc2)on1 (centres undefined) | i | 0.4 | -6.7 | -2.3 | -2.1 | 1.5 | 19.3 | 0.5
CCn1c(SCC(=O)Nc2cc(C)on2)nnc1-c1cccs1 | i | -86.8 | 9.9 | 2.4 | 0.4 | -6.6 | -2.8 | -0.3
COCCN1C(=O)C(=O)/C(=C(/O)c2cccc(OC)c2)C1c1ccncc1 (centres undefined) | i | -8.9 | -6.5 | -0.9 | 1.3 | -25.4 | -6.9 | -6.9
CCOc1ccc(OCC)c(NC(=O)CCn2cccc2)c1 | i | nt | -14.1 | -0.4 | 0.1 | -14.2 | -8.5 | 4.4
Cc1ccc(CNC(=O)c2ccc(N3CCC4(CC3)CC(c3cccc(Br)c3)=NO4)c(NC(=O)c3ccccc3)c2)cc1 | i | 14.4 | -4.1 | -7.1 | 1.3 | -9.3 | nt | nt
N#CC(C#N)=c1ccc2c(c1)N1C(c3ccccc3)=CC(c3ccccc3)C3CCCCC31N=2 (centres undefined) | i | -1.3 | 5.8 | -24.9 | 19.5 | 1.2 | 15.4 | 32.2
Cc1ccc(C#CC[N+]2(C)CCCCC2)cc1 | i | -19.1 | -6.0 | 1.2 | 1.9 | -9.6 | 14.5 | 2.7
O=C(Cc1ccc(Br)cc1)N1CCc2ccccc2C1 | i | -61.8 | 11.5 | 1.4 | -0.5 | -7.9 | 9.0 | 4.1
COc1ccc(-c2nc(CS(=O)CC(=O)NC3CCCC(C)C3C)c(C)o2)cc1OC (centres undefined) | i | -2.2 | -6.5 | -5.3 | -9.9 | 19.4 | -1.7 | -0.5
O=C(NNC(=S)Nc1ccccc1)c1cccc(S(=O)(=O)N2CCOCC2)c1 | i | -8.7 | -6.2 | 5.4 | 8.4 | nt | 2.6 | 15.7
COCc1c(C(=O)OCc2nc3ccsc3c(=O)[nH]2)oc2ccccc12 | nt | nt | -10.5 | 2.3 | 6.5 | -10.1 | nt | nt
NC(=O)c1ccccc1NC(=O)COC(=O)C1(c2ccccc2)CC1 | i | -6.3 | -0.1 | 5.4 | 3.2 | 33.8 | nt | nt
Cc1ccc2c(c1)nnn2C1CCN(C(=O)Nc2ccccc2C)CC1 | i | -11.8 | -12.9 | -1.6 | -3.0 | nt | 3.8 | -2.7
O=[N+]([O-])c1ccc(N2N=C(c3ccco3)CC2c2ccccc2)cc1 (centres undefined) | i | nt | 16.2 | -89.8 | -3.6 | -32.7 | 7.6 | 29.1

(next part)
canonical_smiles | Rce1 inhib | Env fusion inh | CSC inhib | MT1-MMP act inh | MT1-MMP act inh RFP | Yeast UUG start | PABP polyA inh | eIF4H FP inh
CCC(C)c1ccc(OCCN2CCCC2)cc1 (centres undefined) | i | -22.4 | 17.7 | 2.9 | 5.6 | -9.3 | 1.5 | 3.0
O=C(Cn1c(=O)c2cccn2c2cccnc21)N1CCN(c2ccc(Cl)cc2)CC1 | i | nt | -13.2 | -3.7 | -5.2 | -23.1 | -2.0 | 3.6
CCOc1ccc(NC(=O)CSc2nnc(-c3ccccc3Cl)n2Cc2ccco2)cc1 | nt | nt | -11.8 | -4.2 | -6.8 | 4.7 | -5.3 | -12.6
Cc1ccc(NS(=O)(=O)c2ccc(NC(=O)c3ccc(Br)o3)cc2)c(C)c1 | i | 8.7 | nt | -2.8 | -11.3 | -6.0 | -4.4 | -6.3
Cc1c(NC(=O)CCc2ccccc2)cccc1[N+](=O)[O-] | i | 8.1 | -7.5 | 1.6 | 2.9 | -22.5 | 7.2 | -1.2
COc1ccc(Cn2c(=O)[nH]c3cc(C(=O)N4CCN(Cc5ccccc5)CC4)ccc3c2=O)cc1 | i | 23.9* | -15.7 | 1.0 | -17.6 | -8.3 | 0.7 | -7.1
COc1ccccc1-n1c(SCC(=O)NCc2ccc3c(c2)OCO3)nc2cc([N+](=O)[O-])ccc21 | i | nt | -2.5 | -2.9 | -11.1 | nt | -8.4 | 34.3
CC(C)c1ccc(NC(=O)CCCN2C(=S)NC(C)(C)CC2C)cc1 (centres undefined) | i | -30.2 | 39.6 | 8.1 | -2.7 | -34.3 | -0.2 | -5.5
N#Cc1cccc(NC(=O)CN2CCN(Cc3ccccc3)CC2)c1 | nt | -6.9 | 6.6 | -1.8 | -1.9 | -6.6 | -9.9 | -12.7
FC(F)(F)Oc1ccccc1-c1nnc(-c2cccc(C(F)(F)F)c2)o1 | i | -271.1 | -16.9 | 3.1 | 4.8 | -11.7 | -8.4 | -7.1
Cc1ccc(NC(=O)c2ccccc2CCc2ccccc2)c(C)c1 | i | nt | -1.9 | 7.3 | 2.6 | -37.3 | -3.4 | -15.9
CC(NC(=S)Nc1ccc(Cl)cc1Cl)C(c1cccs1)N1CCCC1 (centres undefined) | i | -14.0 | -9.8 | -4.1 | -2.4 | nt | -0.5 | -7.1

Screening data (PubChem BioAssay)
